Assay outcomes: PubChem, PCMD
Calb biofilm kill = mixtures killing C. albicans biofilm; C. albicans biofilm persisters + clotrimazole, fluorescence viability; primary screen in compound mixtures of four per well; inhibition, % at 7.6 µM; actives 0.02% (n = 120,000); AID 1242;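 active means inhibition above 30.3% in the primary screen of four-compound pools, then above 30% when the compound was retested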;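 further: compounds exposed to preformed 24 h biofilms for 48 h; the number belongs to the whole pool; some results filed as inactive read as strong as hits; inactives centre near 12; 0% = biofilm with clotrimazole alone and 100% = kill control; retested singly at about 60 µM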
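Test system: C. albicans CAF4-2 wild-type biofilms; buffer or medium: RPMI/MOPS medium, pH 7.0; schedule: 24 h biofilm formation, then 48 h compound exposure, 37 °C; detection: Alamar Blue fluorescence; measure: percent inhibition of biofilm viability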
An asterisk follows results filed as active. This is a subset, so the mix of outcomes need not match the whole.

SMILES	Calb biofilm kill
CC1CCCC(C)N1C(=C(Cl)Cl)C(=C1SCCS1)[N+](=O)[O-] (centres undefined)	12
CCN1CCCC1CNS(=O)(=O)c1cccc(C(F)(F)F)c1 (centres undefined)	7
CC1Oc2ccccc2C=C1/C=N/NC(=O)c1ccncc1 (centres undefined)	27
COc1cc2c(cc1OC)C1Cc3ccc(OC)c(OC)c3C[N+]1([O-])CC2 (centres undefined)	7
O=C(/C=C/c1ccc(F)cc1)NC(=S)N1CCOCC1	17
Cc1ccc(S(=O)(=O)N2CCOCC2)cc1NC(=O)COC(=O)c1ccccc1OCc1c(C)noc1C	21
CCOC(=O)/C(C#N)=C/c1cc2ccc(C)cc2nc1Cl	5
O=S(=O)(c1ccccc1)N(CC(O)COc1ccccc1)c1ccccc1 (centres undefined)	21
CN1N=C(C(C)(C)C)CC1=O	7
C[C@@H](NC(=O)c1nc[nH]c1C(=O)N[C@@H](Cc1ccccc1)C(=O)OC(C)(C)C)c1ccccc1	17
O=C(Nc1ccccc1)c1ccc(CN2CCc3ccccc3C2)cc1	15
Cc1cc(C(=O)N/N=C/c2ccccc2[N+](=O)[O-])c(C)o1	23

Copied from above for reference:
SMILES	Calb biofilm kill
O=S(=O)(c1ccccc1)N(CC(O)COc1ccccc1)c1ccccc1 (centres undefined)	21
CN1N=C(C(C)(C)C)CC1=O	7
C[C@@H](NC(=O)c1nc[nH]c1C(=O)N[C@@H](Cc1ccccc1)C(=O)OC(C)(C)C)c1ccccc1	17

Next entries.
SMILES	Calb biofilm kill
COc1ccc(-c2nnnn2-c2ccc(F)cc2F)cc1	13
Cc1nn(CC(=O)Nc2ccc3c(c2)nc2n3CCN(C3CCCCC3)C2)c(=O)c2ccccc12	15
O=C(CCc1ccccc1)NNC(=O)c1ccc(Br)cc1	30
CCN(CC)c1ccc(C(=O)N2CCN(Cc3ccccc3)CC2)cc1	16
Cc1ccc(CNC(=O)CCCCCNc2nc(=S)[nH]c3ccccc23)cc1	16
COCC(=O)O[C@]1(CCN(C)CCCc2nc3ccccc3[nH]2)CCc2cc(F)ccc2[C@@H]1C(C)C	22
CCOC(=O)CSc1nnc(NC(=O)c2cccc([N+](=O)[O-])c2C)s1	18
COc1ccc(CNC(=O)C2CCCN2C)cc1OC (centres undefined)	14
COc1ccc(Nc2sc(C(=O)Nc3cccc(Cl)c3)c(N)c2C(=O)Nc2ccccc2OC)cc1	22
NCCCCNCCCN	13
COc1ccc2oc(=O)c(-c3csc(Nc4cccc(O)c4)n3)cc2c1	5
Nc1nc(NCCCN2CCOCC2)nc(NCc2ccccc2)c1[N+](=O)[O-]	16
Cc1cc(=O)oc2cc(OCc3ccc(C(=O)OCC(=O)N(C)C4CCS(=O)(=O)C4)cc3)ccc12 (centres undefined)	24
CCc1ccccc1Nc1nc2ccccc2n1C	23
CN(C)CCCN(Cc1ccccc1)C(=S)NCc1ccccc1	8
COc1cccc(CNC(=S)Nc2cc(C)cc(C)c2)c1	12
O=C(Nc1ccc(OC(F)F)c(Cl)c1)c1ccccn1	11
COc1ccc(CCNC(=O)CSc2nccc(=O)[nH]2)cc1OC	21
CC1SCC(=NOCc2c(Cl)cccc2Cl)CS1 (centres undefined)	18
N=C1/C(=C\c2ccc(-c3cccc(C(=O)O)c3)o2)C(=O)N=C2SC=C(c3ccccc3)N12	17
COC(=O)c1sccc1NC(=O)c1ccc(OC)cc1OC	15
Cc1ccccc1S(=O)(=O)N(CC(O)CN1C(=O)NC(C)(C)C1=O)c1ccccc1 (centres undefined)	5
COC(=O)c1ccccc1NC(=O)Cn1c(=O)n(Cc2ccccc2)c(=O)c2c(C)c(C)sc21	9
Nc1ccc(Oc2ccc(F)cc2)nc1	23
Cc1c(C(=O)N2c3ccccc3Sc3ccccc32)cccc1[N+](=O)[O-]	5
NS(=O)(=O)c1ccc(NC(=O)/C=C/c2cn(-c3ccccc3)nc2-c2cccc(Cl)c2)cc1	7
Cc1ccc(S(=O)(=O)NNC(=O)c2sc(=S)n(C)c2C)cc1	-9
CSCC(O)Cn1ncc2ccccc2c1=O (centres undefined)	7
Cc1cccc(OCCCCNCc2ccccc2)c1	11
Cc1cccc(N=Cc2c(O)cc(C)oc2=O)c1	-12
CC(C)(C)c1ccc(Oc2ccc(NC(=O)CCCC(=O)O)cn2)cc1	16
CC(=O)Oc1ccc(C(=O)c2ccccc2)c(OC(C)=O)c1	23
C=CCNC(=O)/C(C#N)=C/c1c(N(Cc2ccccc2)Cc2ccccc2)nc2ccccn2c1=O	11
Clc1ccc(-c2cc(C3CCNCC3)[nH]n2)c(Cl)c1	2
O=C(Cc1ccccc1)NNC1CC(=O)N(c2ccccc2)C1=O (centres undefined)	20
COc1ccc(N(C)S(=O)(=O)c2cccc(C(=O)Nc3cc(OC)ccc3OC)c2)cc1	12
Cc1cc(C)c(C(=O)O)c(Cl)n1	8
COc1cccc(OCc2cc(/C=N/n3cncn3)ccc2OC)c1	24
COc1cc(NS(C)(=O)=O)cc(OC)c1OC	9
C/C(=N\NC(=O)CCc1c(C)n[nH]c1C)c1ccc([N+](=O)[O-])cc1	8
C=CCN(c1ccccc1OC)S(=O)(=O)c1ccc(Cl)c(C(=O)Nc2ccc(N3CCOCC3)cc2)c1	5
Cc1cc(NC(=O)CSc2nnc(NCc3ccccc3)s2)no1	15
O=C(C[n+]1cccc(/C=N/O)c1)N(Cc1ccccc1)Cc1ccccc1	31
CCN(CC)C(=O)CN(C#N)c1nc(C)cc(C)n1	15
NS(=O)(=O)c1ccc(CCNC(=O)c2ccc3ccccc3n2)cc1	13
Cc1cccc(NC(=O)CN2C(=O)S/C(=C\c3cc(C)n(C)c3C)C2=O)c1	15
CCc1ccc2c(c1)cc(C)c1nnc(SCC(=O)Nc3cc(OC)c(OC)cc3C(=O)O)n12	7
CCOC(=O)c1ccc(NC(=O)c2nc[nH]c2C(=O)N2CCN(C(=O)OC(C)(C)C)CC2)cc1	4
CC(C)S(=O)(=O)c1cnc(-c2ccccn2)nc1N	14
CCN1C(=O)/C(=C\c2cn(CCC#N)nc2-c2ccc(F)cc2)SC1=S	14
Cc1ccc(S(=O)(=O)Nc2ccc(N3CCN(C)CC3)nc2)cc1	8
CN(C)/C=C(\C#N)S(=O)(=O)c1ccc(Cl)cc1	26
Cc1ccc(C)c(OCC(=O)N/N=C\c2cccn2C)c1	17
COc1ccc(-c2cccc(C(=O)Nc3cccc(C(=O)O)c3)c2)cc1	10
Cc1ccc(N(Cc2cc3ccccc3[nH]c2=O)C(=O)c2cccs2)cc1	22
Cc1ccc(C(C)(C)C)c(OCCCCN2CCCC2)c1	13
COc1cc(/C=N/NC(=O)CCOc2ccccc2C)cc(Br)c1O	3
N#Cc1nc(-c2ccccc2)oc1NCC1CCCO1 (centres undefined)	22
CCn1ncc(Cl)c1C(=O)NC(=S)Nc1c(C)cc(C)cc1[N+](=O)[O-]	15
O/N=C/c1ccc(OCc2ccccc2F)c(Cl)c1	6

Pulled by compound from the entries so far (4):
SMILES	Calb biofilm kill
C=CCN(c1ccccc1OC)S(=O)(=O)c1ccc(Cl)c(C(=O)Nc2ccc(N3CCOCC3)cc2)c1	5
Nc1nc(NCCCN2CCOCC2)nc(NCc2ccccc2)c1[N+](=O)[O-]	16
Cc1ccc(S(=O)(=O)NNC(=O)c2sc(=S)n(C)c2C)cc1	-9
Cc1cc(C)c(C(=O)O)c(Cl)n1	8

Additional compounds.
SMILES	Calb biofilm kill
Cc1cccc(C)c1NC(=O)NN=C1CCCCC1	19
CC(C)(C)NC(=O)NC(=O)COC(=O)c1cccc(S(=O)(=O)N2CCCCC2)c1	12
CCC(=O)Nc1ccc(-c2nc3ccccc3c(=O)o2)cc1	9
CCNc1nc(NCC)n2c(SCC(=O)NCC3CCCCC3)nnc2n1	25
Cc1ccc(NC(=O)c2oc3ccc(S(=O)(=O)N4CCC5(CC4)OCCO5)cc3c2C)cc1C	21
OCC[C@H]1C[C@H](O)[C@@H](O)[C@@]2(CCCCO2)O1	15
Cc1cccc(-n2c(-c3ccoc3C)n[nH]c2=S)c1	16
COc1ccc(Cn2c(-c3ccc(OC)cc3)nc3ccccc32)cc1	4
CC1CCN(C(=O)Cn2cc(C#N)c3ccccc32)CC1	17
CCCOC(=O)c1ccc(S(N)(=O)=O)o1	19
COC(C[C@@H](O)C[C@H](O)[C@@H](C)OCc1ccccc1)OC	13
O=C1CC(c2ccccc2)Cc2nc(NC3CC3)ncc21 (centres undefined)	8
CC(C)CNC(=O)C(=O)NCc1ccccn1	17
COc1cc2c(cc1OC)C(c1cccs1)N(C(=O)c1ccncc1)CC2 (centres undefined)	3
CCCCc1nc(Cl)c(C#N)c2c1CSC(C)(C)C2	19
CCOc1ccc(C(=O)NCc2cccnc2)cc1[N+](=O)[O-]	13
CNNC(=S)NCCC1=CCCCC1	27
CC1(C)N=c2ccc([N+](=O)[O-])c(N)c2=[N+]1[O-]	25
CC(=O)Nc1ccc(SCC(=O)c2c(N)n(Cc3ccccc3)c(=O)n(C)c2=O)cc1	16
CCOC(=O)C1(CCOC)CCN(C2C3CC4CC(C3)CC2C4)CC1 (centres undefined)	9
COc1ccc(NC(=O)COC(=O)c2ncc(Cl)c(Cl)c2Cl)c(OC)c1	13
Cc1nc2ccsc2c(=O)n1-c1ccc(Cl)cc1	14
Cc1cccc(OCCC(=O)NCC(=O)Nc2cccc(C)c2C)c1	14
Cc1ccc(N/N=C(\C#N)C(N)=S)cc1C	6

Gathered by group: those above containing an aryl thioether with sulfur outside any ring
SMILES	Calb biofilm kill
CCOC(=O)CSc1nnc(NC(=O)c2cccc([N+](=O)[O-])c2C)s1	18
COc1ccc(CCNC(=O)CSc2nccc(=O)[nH]2)cc1OC	21
Cc1cc(NC(=O)CSc2nnc(NCc3ccccc3)s2)no1	15
CCc1ccc2c(c1)cc(C)c1nnc(SCC(=O)Nc3cc(OC)c(OC)cc3C(=O)O)n12	7
CCNc1nc(NCC)n2c(SCC(=O)NCC3CCCCC3)nnc2n1	25
CC(=O)Nc1ccc(SCC(=O)c2c(N)n(Cc3ccccc3)c(=O)n(C)c2=O)cc1	16

Continuation:
SMILES	Calb biofilm kill
N/C(=N\OC(=O)c1ccc([N+](=O)[O-])cc1)c1cccnc1	11
COc1ccccc1CC(=O)Nc1c[nH]c(=O)[nH]c1=O	10
COc1ccccc1-c1nc(-c2ccccc2)[nH]c(=O)c1C#N	17
CCC/C(=N\NC(=O)CNC(=O)c1ccc(Cl)cc1)c1ccccc1	14
Cc1ccnc(NC(=O)c2cc(-n3cnnc3)ccc2Cl)c1	10
O=C(c1cc2ncccn2n1)N1CCc2c([nH]c3ccccc23)C1c1ccccc1F (centres undefined)	14
Cc1ccc(Sc2c(C)nn(C(=O)CNS(=O)(=O)c3ccc(F)cc3)c2C)cc1	7
CCOC(=O)[C@H](CCc1ccccc1)N[C@@H](C)C(=O)N1CCC[C@H]1C(=O)O	11
CC1(C(=O)Oc2ccccc2)Cc2ccccc2C(=O)O1 (centres undefined)	15
CC(C)C(NC(=O)c1c(F)cccc1F)C(=O)NCC(c1ccccc1)N(C)C (centres undefined)	20
O=C(NNC(=O)c1nn(-c2ccc(F)cc2)ccc1=O)c1ccc(Cl)cc1	4
CCCCN(c1ccccc1)S(=O)(=O)N(C)C	9
CC(=O)N1CCN(C2=NC(=O)C(=C3CCCCC3)S2)CC1	13
Cc1cc(=O)n(CC(=O)Nc2cc(Cl)ccc2C)c(C(C)C)n1	13
Cc1ccc(-n2nc(CC#N)c(C#N)c2N)cc1	22
O=C(Cc1ccccc1)N/N=C/c1cc(Br)cc(Cl)c1O	9
O=S(=O)(Nc1cc(Sc2cccc3cccnc23)c(O)c2ccccc12)c1ccc(F)cc1	15
C#CCOC(=O)/C(=C/c1ccc(F)cc1)NC(C)=O	17
COc1ccc(/C=C(\C#N)C(=O)OCC(=O)Nc2ccc(-c3nc4ccc(C)cc4s3)cc2)cc1	19
COc1ccc2c(Cl)c(C(=O)NN3CCN(C)CC3)sc2c1	9
CCNC(=O)Oc1ccc(-c2csnn2)cc1	24
C[C@H](NC(=O)Cc1cccc2ccccc12)C(=O)N1CCCN(C)CC1	10
C=CCN(CC=C)CCOc1ccccc1	7
CCN(CC)C(=O)Cn1cc(SCC(=O)Nc2cc(C)on2)c2ccccc21	7
O=C(Cc1cccs1)N1CCN(S(=O)(=O)c2ccc(F)cc2)CC1	11
COc1ccccc1N1CCN(C(=O)CSc2ncnc3scc(-c4ccccc4)c23)CC1	3
O=C(CSc1nnc(SCc2ccc(Cl)cc2)s1)N/N=C/c1c(Cl)cccc1Cl	10
Cc1ccc(NC(=O)CCCN2C(=S)NC(C)(C)CC2C)cc1 (centres undefined)	6
COc1ccc2cnn(CCOc3cc(C)ccc3C(C)C)c(=O)c2c1OC	23
COc1ccc(CN2C(=O)NC3(CCOc4ccccc43)C2=O)cc1F (centres undefined)	20
CCCCN1Cc2c(nc3cc(-c4ccco4)[nH]n3c2=O)C1=O	22
Cc1cc(C2=NNC(=NCc3ccccc3)SC2)c(C)n1-c1c(C)n(C)n(-c2ccccc2)c1=O	29
CC(C)OC(=O)NC(c1ccccc1)C(Cl)(Cl)Cl (centres undefined)	7
O=C(CSc1nnc2ccccn12)c1ccc(Cl)cc1	15
Cc1nc(C)c(-c2ccnc(/N=C/NO)n2)s1	23
COCc1c(C(=O)OC)nnn1-c1ccc(C(F)(F)F)cc1[N+](=O)[O-]	12
CC(=O)c1c(-c2ccc(Cl)cc2Cl)noc1C	18
C=CCNC(=S)NN(c1ccccc1)c1ccccc1	8
COc1ccc(C(=O)Nc2ccccc2-c2ccccc2)cc1Cl	-10
Cc1ccc(S(=O)(=O)NC(C)C(c2cccs2)N2CCN(C)CC2)cc1 (centres undefined)	6
Cn1c(SCC(=O)O)nnc1-c1cccc(NC(=O)c2cccc3ccccc23)c1	21
CCOc1ccccc1C(=O)OCC(=O)Nc1cc(Cl)ccc1Oc1ccccc1	13
CC1CC(C)(C)NC(=S)N1CCC(=O)N1c2ccccc2CC1C (centres undefined)	21
Cc1cc(C)n(-c2nc3ccccc3s2)n1	15
CN1C(C(=O)NCc2cccc(Br)c2)CC2Cn3c(nc4cc(Cl)c(Cl)cc43)C21 (centres undefined)	13
COc1ccc(NC(=S)N(CCCN2CCCC2)Cc2cccs2)cc1	17
